Rango dissoc inh = inhibitors of RanGTP-induced Rango-importin beta complex dissociation. O95149+P62826. Biochemical FRET Rango-importin beta, RanGTP-induced dissociation. Potency, µM (highest dose often 46.1 µM), inactives show top-dose activity change, negative = inhibition. actives 0.071% (n = 340,000); active means falling FRET ratio curve, often poorly fitted, with flat reads before Ran was added; inconclusive means other falling curves, or compound fluorescence or quenching; inactive means flat or rising ratio curve;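 note: potency is the fitted concentration of half-maximal effect; % of control where 0% means no effect; nearly all actives have a fitted effect of over 45% in size; -100% = wells without RanGTP and RCC1; the record marks most hits as doubtful in a second field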
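Quantitative HTS using a FRET biosensor: 0.1 uM Rango, 0.25 uM importin beta, 0.6 uM Ran, 2 mM GTP, 0.2 uM RCC1 final, PBS with DTT, Tween-20 and BSA. Post-read taken 45 min after Ran addition.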
GLA inh pH 4.5 = alpha-galactosidase A (human) inhibition, pH 4.5; purified enzyme, 4-MU-alpha-Gal fluorescence, pH 4.5; activity change, negative = inhibition, % at 105 µM; 230,000 tested, under 10 active; inconclusive = small, poorly fitted or top-dose-only inhibition, or a rising curve; inactive = flat fitted curve, though single readings scatter; no compound was filed as active;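 note: 0% = full activity with enzyme and -100% = basal without enzyme; dose as in the result columns while the protocol names 77 µM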
Target sequence (P06280 whole entry, looked up): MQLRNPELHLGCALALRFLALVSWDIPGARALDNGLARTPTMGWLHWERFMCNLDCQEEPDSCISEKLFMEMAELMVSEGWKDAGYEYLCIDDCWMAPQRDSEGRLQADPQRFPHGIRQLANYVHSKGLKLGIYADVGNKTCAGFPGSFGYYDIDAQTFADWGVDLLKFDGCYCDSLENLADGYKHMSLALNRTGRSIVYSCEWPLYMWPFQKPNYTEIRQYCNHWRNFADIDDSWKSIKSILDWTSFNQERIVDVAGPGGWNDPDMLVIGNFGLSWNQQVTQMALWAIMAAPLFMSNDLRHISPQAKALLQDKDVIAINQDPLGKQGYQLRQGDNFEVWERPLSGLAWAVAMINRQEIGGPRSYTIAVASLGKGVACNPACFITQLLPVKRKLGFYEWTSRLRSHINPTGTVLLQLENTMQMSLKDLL
miR-21 reporter = raises the signal of a miR-21 reporter. 340,000 tested, under 10 active. AID 2288. HeLa miR-21 FLuc reporter, luciferase, 48 h. Potency, µM (series often up to 38.3 µM), for inactives: at the top dose reporter change, positive = more light; active = well fitted rising curve with a large enough effect; inconclusive = small, poorly fitted or top-dose-only effect; inactive = no such curve, though single readings can be large or run the other way;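 note: % of control where 0% means no effect; miR-21 action dims this reporter so a rising signal means less miR-21 action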
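Luminescence from a firefly luciferase reporter carrying a miR-21 binding site downstream, stably expressed under a CMV promoter in HeLa cells that make miR-21 endogenously, reports miRNA modulation after 48 h compound exposure up to approximately 40uM final.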
Rango-impB inh = prevents formation of the Rango-importin beta complex; Potency, µM (titrated, usually from 92.2 µM), without a hit: at the highest dose inhibition of complex formation; actives 0.031% (n = 340,000); Rango CFP/YFP FRET sensor + importin beta, 45 min; Q14974; active = rising FRET ratio curve, often small or poorly fitted; inconclusive = mostly compound fluorescence or quenching in the first reads; inactive = flat curves in all reads;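 note: potency is the fitted concentration of half-maximal effect; 0% = DMSO wells and 100% = buffer wells lacking importin beta; nearly all actives have a fitted effect of over 15% in size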
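FRET biosensor Rango (snurportin 1 IBB between N-terminal EYFP and C-terminal Cerulean), 50 nM in PBS/1 mM DTT/0.02% Tween-20/0.1% BSA, preincubated 5 min RT with compound; 0.125 microM importin beta added, 45 min RT, CFP/YFP FRET ratio read.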
Numbers without * were called inactive; ? = inconclusive; / = no result given; & = joins results of further samples.

SMILES | Rango dissoc inh | GLA inh pH 4.5 | miR-21 reporter | Rango-impB inh
O=C(Cn1c(NCCCO)nc2ccccc21)c1ccc(Cl)cc1 | -4% | / | 5% | 1.1%
Cc1cc(C)cc(N=C2SC(CC(=O)Nc3ccccc3)C(=O)N2CCN2CCOCC2)c1 (stereo not given) | -11% | -9 | 11% | 3.0%
CCS(=O)(=O)N1Cc2ccccc2CC1C(=O)NCCc1c[nH]c2ccccc12 (stereo not given) | -5% | / | -1% | -3.3%
Cc1ccc(S(=O)(=O)/C(C#N)=C/c2c(N3CCC(C(N)=O)CC3)nc3c(C)cccn3c2=O)cc1 | ? | -3 | -8% | ?
CCCCn1c(-c2cccc(F)c2)nc2c1c(=O)[nH]c(=O)n2CC(C)C | -6% | / | -2% | ?
Cc1oc(-c2ccccc2)cc1C(=O)NC1CCN(Cc2ccccc2)CC1 | 3% | -14 | -2% | 5.3%
COc1ccccc1NS(=O)(=O)c1cc2c3c(c1)CC(=O)N3CCC2 | -13% | / | -2% | -5.5%
Cc1ccc(S(=O)(=O)NCc2ccc(C(=O)NC3CC3)cc2)cc1 | 6% | 5 | -12% | 0.7%
O=C(Nc1nnc(-c2ccc(F)cc2)s1)Nc1ccccc1F | 15% | 2 | 3% | 0.0%
COc1ccc(NC(=O)C23CC4CC(CC(Cl)(C4)C2)C3)cc1S(=O)(=O)N1CCOCC1 | -3% | / | / | -0.2%
COc1ccc(N2CCN(CCC(O)c3ccc4ccccc4c3)CC2)cc1 (stereo not given) | 1% | / | 3% | -0.4%
Cc1nnc(NC(=O)C2CCN(S(=O)(=O)c3cc([N+](=O)[O-])ccc3Cl)CC2)o1 | 7% | / | / | 1.9%
COc1ccc(/C=N/NC(=O)c2cc(Br)ccc2O)cc1Cn1cc(Cl)cn1 | 6% | -6 | -5% | -0.2%
CN1CCOC1c1ccc(C2OCCN2C)cc1 (stereo not given) | -2% | / | / | -2.5%
CCNc1nc(NC(C)(C)C)nc(N2CCCCC2)n1 | 4% | 3 | -1% | 1.0%
Cc1noc(/C=C/c2cccnc2)c1[N+](=O)[O-] | -3% | / | ? | -0.4%
COc1cc(C(=O)OCC(=O)NC(=O)NCc2ccccc2)ccc1OC(F)F | ? | / | / | 2.5%
CCOC(=O)[C@H]1[C@H]2COc3ccccc3[C@@H]2N2C(=O)c3cc(F)c(F)cc3NC(=O)[C@@]12C | -5% | / | / | 5.3%
Cc1ccc(NC(=O)CSc2nccn2C)cc1S(=O)(=O)N1CCOCC1 | -1% | -10 | -11% | 0.2%
CCOc1cc(Br)c(C(=O)O)cc1OCC | -7% | -5 | -3% | 1.4%

A different layout for some results above.
Rango dissoc inh,GLA inh pH 4.5,miR-21 reporter,Rango-impB inh,SMILES
-2%,/,/,-2.5%,CN1CCOC1c1ccc(C2OCCN2C)cc1 (stereo not given)
4%,3,-1%,1.0%,CCNc1nc(NC(C)(C)C)nc(N2CCCCC2)n1
-3%,/,?,-0.4%,Cc1noc(/C=C/c2cccnc2)c1[N+](=O)[O-]
?,/,/,2.5%,COc1cc(C(=O)OCC(=O)NC(=O)NCc2ccccc2)ccc1OC(F)F
-5%,/,/,5.3%,CCOC(=O)[C@H]1[C@H]2COc3ccccc3[C@@H]2N2C(=O)c3cc(F)c(F)cc3NC(=O)[C@@]12C

Among those listed so far, 4 have a Cl atom.
SMILES | Rango dissoc inh | GLA inh pH 4.5 | miR-21 reporter | Rango-impB inh
O=C(Cn1c(NCCCO)nc2ccccc21)c1ccc(Cl)cc1 | -4% | / | 5% | 1.1%
COc1ccc(NC(=O)C23CC4CC(CC(Cl)(C4)C2)C3)cc1S(=O)(=O)N1CCOCC1 | -3% | / | / | -0.2%
Cc1nnc(NC(=O)C2CCN(S(=O)(=O)c3cc([N+](=O)[O-])ccc3Cl)CC2)o1 | 7% | / | / | 1.9%
COc1ccc(/C=N/NC(=O)c2cc(Br)ccc2O)cc1Cn1cc(Cl)cn1 | 6% | -6 | -5% | -0.2%

(more compounds)
SMILES | Rango dissoc inh | GLA inh pH 4.5 | miR-21 reporter | Rango-impB inh
COc1cccc(C(=O)Nc2cccc(C(C)=O)c2)c1 | 7% | 2 | -58% | 2.3%
COc1cccc(C(=O)Nc2cccc3ccccc23)c1OC | -17% | / | -19% | -4.8%
CC(C)Cn1c(=O)c2c(nc3n2CCS3)n(C)c1=O | -17% | 0 | -1% | 1.2%
Cc1ccc(C(=O)c2coc3cc([N+](=O)[O-])c(O)c([N+](=O)[O-])c23)cc1 | ? | -3 | -9% | -0.6%
CC(C)Cc1cc(C(=O)NCc2cccs2)no1 | -9% | -9 | -56% | -2.3%
COc1ccccc1C(=O)N(Cc1ccc(C)o1)C1CCS(=O)(=O)C1 (stereo not given) | 11% | / | 0% | 11%
Cc1cc(C(F)F)n2nc(C(=O)Nc3cccnc3Cl)nc2n1 | 9% | -6 | -5% | -6.1%
Cc1ccc(-n2cc(CN3CCC(O)(c4ccccn4)CC3)c(-c3ccc(F)cc3)n2)cc1 | 0% | -13 | -1% | 1.2%
CO/N=C/NC(=O)Cc1cn(-c2ncc(C(F)(F)F)cc2Cl)c2ccccc12 | -1% | -2 | 17% | -0.8%
COc1ccc(OC)c(NC(=O)Cc2c(C(=O)O)n(C)c3ccccc23)c1 | -2% | / | -11% | 0.7%
O=[N+]([O-])c1ccc(N2CCOCC2)cc1NC(c1ccccc1)c1ccccc1 | 11% | -17 | -5% | -2.3%
CCN(CC)c1ccc(/C=N/n2nnnc2N)c(O)c1 | ? | -12 | -6% | ?
COc1ccc(NC(=O)CCn2cccc2)cc1 | -11% | 2 | -12% | 1.9%
O=C(CN(C1CCCCC1)S(=O)(=O)c1ccc(Cl)cc1)NCc1ccncc1 | -4% | 0 | 0% | 0.5%
O=C(Nc1cc(Cl)ccc1N1CCOCC1)c1cccnc1 | -19% | / | 0% | 0.0%
Cn1c(=S)c2[nH]c(SCCN)nc2n(C)c1=O | 37% | / | / | 0.3%
COC(=O)C1=C(C)N=C2SC(C)C(=O)N2C1c1cccc(F)c1 (stereo not given) | -10% | -4 | 0% | -2.8%
O=C1CCCc2oc3c(c21)CCCC3 | -15% | 1 | -1% | 1.1%
CCc1nnc(NC(=O)C2CCCN2S(=O)(=O)c2ccc(F)cc2)s1 (stereo not given) | 21% | -13 | -1% | -2.5%
O=[N+]([O-])c1ccc(N2CCCC2)nc1N1CCCC1 | 23% | -12 | 1% | -2.4%

An excerpt of these results, tab-delimited.
SMILES	Rango dissoc inh	GLA inh pH 4.5	miR-21 reporter	Rango-impB inh
CO/N=C/NC(=O)Cc1cn(-c2ncc(C(F)(F)F)cc2Cl)c2ccccc12	-1%	-2	17%	-0.8%
COc1ccc(OC)c(NC(=O)Cc2c(C(=O)O)n(C)c3ccccc23)c1	-2%	/	-11%	0.7%
O=[N+]([O-])c1ccc(N2CCOCC2)cc1NC(c1ccccc1)c1ccccc1	11%	-17	-5%	-2.3%

Following part:
SMILES | Rango dissoc inh | GLA inh pH 4.5 | miR-21 reporter | Rango-impB inh
COc1ccc(-c2csc(N(CCCN(C)C)C(=O)c3ccc(C)cc3)n2)cc1 | -2% | / | 29% | 2.0%
CC1=NN(C(=O)c2csc(C)c2)C(O)(C(F)(F)F)C1 (stereo not given) | -18% | 6 | -20% | -5.0%
CN(C)CCN(C(=O)/C=C/c1cccs1)c1nc2c(F)cc(F)cc2s1 | 0% | -1 | 23% | 0.4%
CC(CC(=O)Nc1cc(C(F)(F)F)ccc1Cl)c1ccccc1 (stereo not given) | 6% | -20 | -9% | 0.0%
OCC1(CO)CCCC(CO)(CO)C1O | -5% | / | / | 0.4%
Cc1ccccc1C(=O)O/N=C(\N)c1ccncc1 | 5% | 4 | -63% | 0.2%
CC(=O)N1CC2(C)CN(C(C)=O)CC(C)(C1)C2O (stereo not given) | -2% | -6 | 0% | -1.0%
Oc1c(C(c2cccs2)N2CCN(c3cccc(Cl)c3)CC2)sc2ncnn12 (stereo not given) | -5% | 0 | 4% | 3.4%
CCN(CC)CCCNc1oc(/C=C/c2ccccc2)nc1C#N | -2% | ? | -18% | -2.7%
CC(=O)Oc1ccc(-c2csc(Nc3cccc(C)n3)n2)cc1 | -1% | / | -62% | -4.3%
Clc1nc(Cl)nc(NCCC2=CCCCC2)n1 | 10% | 3 | 0% | 2.0%
Cc1ccc(S(=O)(=O)N2CCC(C(=O)Nc3ccccc3N3CCCC3)CC2)cc1C | 0% | / | / | 0.9%
Cc1cc([N+](=O)[O-])nn1CC(=O)N/N=C/c1ccc(O)cc1O | -8% | -9 | 21% | -0.5%
CCOC(=O)c1ccc(CC(=O)c2oc3cc(O)ccc3c2C)o1 | ? | 4 | -21% | ?
C[N+](C)(C)CCN1C(=O)CSC1=O | 9% | 7 | 2% | -3.9%
CCOc1ccc(NC(=O)Cn2nnc(C(=O)NCCc3ccc(OC)c(OC)c3)c2N)cc1 | 16% | 5 | -2% | -2.4%
O=C(Nn1c(-c2ccccc2)nc2ccccc2c1=O)c1ccco1 | -2% | -8 | -9% | 0.8%
CCCNC(=O)CSc1nc(COc2ccccc2)nc2ccccc12 | -15% | -1 | -7% | 0.1%
CC1(C)CC(=O)C2=C(C1)NCN(CCCN1CCOCC1)C2 | 0% | 1 | 5% | ?
O=C(NCc1ccccc1)c1onc(CSc2ccccn2)c1C(=O)NCc1ccccc1 | -8% | -15 | 4% | 0.8%
O=C(O)Cn1nnc(-c2ccc(OCc3ccccc3)cc2)n1 | -10% | / | / | 0.2%
COc1ccc(C)c(NC(=O)C2CC(=O)NC3=C2C(=O)CCC3)c1 (stereo not given) | 7% | -27 | -5% | -0.5%
O=C(COC(=O)c1cnc(Cl)c(Cl)c1)Nc1ccc(S(=O)(=O)N2CCCC2)cc1 | 0% | -19 | 3% | 1.5%
COC(=O)CCCC1=CC2=C(c3ccccc3)C(=O)C(C)(OC(=O)C3CCCC3)C(=O)C2=CN1c1ccccc1 (stereo not given) | -26% | -2&-4 | -1% | ?
Cc1onc(-c2c(Cl)cccc2Cl)c1C(=O)NC1C(=O)N2C1SC(C)(C)C2C(=O)O (stereo not given) | 11% | 2 | 3% | -1.0%
[O-][n+]1ccccc1SCc1ccccc1 | -14% | / | / | 4.6%
CCOc1ccccc1C1C(C#N)=C(N)SC(N)=C1C#N | ? | -5 | -1% | ?
O=C(CNc1cccc(S(=O)(=O)N2CCOCC2)c1)Nc1ccccc1F | 0% | / | -8% | 0.3%
CCOC(=O)C1(Cc2cccc(OC)c2)CCN(Cc2cc(OC)ccc2OC)CC1 | 17% | -5 | 12% | -1.6%
CN(C)c1ccc(N2C(=NC(=O)COc3ccccc3)SC3CS(=O)(=O)CC32)cc1 (stereo not given) | -3% | / | -16% | -0.8%
Cc1nn(C)cc1/C=N/NC(=O)C(C)(C)Oc1ccc(Cl)cc1 | -11% | -14 | 0% | 3.5%
CC1CCN(C(=O)c2ncn(Cc3ccccc3)c2C(=O)N2CCC(C)CC2)CC1 | 13% | / | / | 1.1%
O=C(NCCO)c1scc2c1OCCO2 | 8% | -12 | -2% | 2.9%
O=C(COC(=O)c1ccccc1)Nc1ccccc1Br | -5% | 1 | -5% | -0.6%
CON/C=C(\C=Nc1ccc(Cl)cc1)c1ncc(C(F)(F)F)cc1Cl | -4% | 3 | -7% | -2.3%
COc1ccccc1C/C(N)=N/OC(=O)c1cccs1 | 17% | 4 | -7% | -3.0%
COc1cc(OC)c(C(=O)O/N=C(\N)c2cccc(C)c2)cc1OC | 4% | / | -28% | -5.4%
COc1ccc(-n2ncc3c(NCCCn4ccnc4)ncnc32)cc1 | 2% | -7 | -60% | 5.4%
CCN(CC(=O)NC1CCS(=O)(=O)C1)S(=O)(=O)c1ccc(Cl)cc1C(F)(F)F (stereo not given) | -17% | / | / | -0.7%
COc1ccc2[nH]c3c(c2c1)CCC/C3=N\N | -6% | 4 | 6% | -0.4%
COc1ccc(/C=C/C(=O)NNc2cc(=O)n(C)c(=O)n2C)cc1OC | -24% | -2 | 0% | ?

Complete entries from above. Values in the order: Rango dissoc inh	GLA inh pH 4.5	miR-21 reporter	Rango-impB inh
[O-][n+]1ccccc1SCc1ccccc1 is entered as -14%	/	/	4.6%
CON/C=C(\C=Nc1ccc(Cl)cc1)c1ncc(C(F)(F)F)cc1Cl is entered as -4%	3	-7%	-2.3%

This is a subset; rates above refer to the full screens.
